Screens as filed in PubChem BioAssay.
PABP polyA inh – PABP poly(A) RNA binding inhibitors, primary screen, biochemical, fluorescence polarization, uHTS; Polyadenylate-binding protein 1 (Homo sapiens), P11940; inhibition, % at 35 µM; actives 1% (n = 290,000);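 active = 50% or more with normal probe brightness, or confirmed in later tests; inconclusive = above 50% with abnormal brightness, or retests that disagree; inactive = below 50% or failed in later tests; about a fifth of its hits are not listed in these tables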;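 also: calls also rest on retests at 20 µM and on dose response follow-up; controls were probe without protein and protein plus probe with vehicle; some compounds called inactive have numbers as strong as hits; many hits fall short of the cut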
Target sequence (P11940 whole entry, looked up): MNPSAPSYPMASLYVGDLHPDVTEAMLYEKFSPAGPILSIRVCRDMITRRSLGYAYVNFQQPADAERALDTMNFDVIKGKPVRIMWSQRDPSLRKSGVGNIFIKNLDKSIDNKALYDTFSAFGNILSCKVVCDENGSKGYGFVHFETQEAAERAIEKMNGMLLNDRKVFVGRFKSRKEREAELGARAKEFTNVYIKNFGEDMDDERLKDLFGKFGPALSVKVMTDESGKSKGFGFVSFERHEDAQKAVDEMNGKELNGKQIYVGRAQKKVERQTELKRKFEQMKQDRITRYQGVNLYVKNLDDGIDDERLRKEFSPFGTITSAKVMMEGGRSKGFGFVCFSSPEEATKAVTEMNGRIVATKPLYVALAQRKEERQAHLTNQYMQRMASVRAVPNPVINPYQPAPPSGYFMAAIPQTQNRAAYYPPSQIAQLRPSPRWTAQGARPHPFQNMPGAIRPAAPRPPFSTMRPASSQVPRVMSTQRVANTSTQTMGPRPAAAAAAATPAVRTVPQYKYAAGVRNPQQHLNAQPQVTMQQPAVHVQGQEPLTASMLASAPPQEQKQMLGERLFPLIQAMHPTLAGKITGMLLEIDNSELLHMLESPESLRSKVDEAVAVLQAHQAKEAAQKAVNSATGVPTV
eIF4H FP inh – human eIF4H binding inhibitors, primary screen, translation initiation inhibitor project, biochemical, uHTS, fluorescence polarization. Eukaryotic translation initiation factor 4H (Homo sapiens), Q15056. eIF4H fluorescence polarization binding assay. inhibition, % at 35 µM. actives 0.94% (n = 290,000). AID 2012, 2009;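 active = 50% or more with normal probe brightness, or confirmed in later tests; inconclusive = above 50% with abnormal brightness, or retests that disagree; inactive = below 50% or failed in later tests; about a fifth of its hits are not listed in these tables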;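 also: calls also rest on retests at 20 µM and on dose response follow-up; 0% = protein and probe with vehicle and 100% = probe without protein; strong numbers were not always called active; many hits fall short of the cut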
CSC inhib – cancer stem cell viability inhibitors, primary screen, luminescence. AID 2717, 2010. cancer stem cell-like cells viability. actives 1.1% (n = 300,000). inhibition, % at 7.5 µM;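 active = mean at 75% or more and at least half the replicates too; inconclusive = mean and replicates disagree; tested in HMLE shEcad cells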;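 also: 0% = median of negative and 100% = median of positive control wells; the first replicate is given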
Yeast UUG start – modulators of yeast start codon fidelity, primary screen, whole organism, S. cerevisiae, single point, plate reader. S. cerevisiae UUG-firefly luciferase reporter, luminescence/redox ratio. activity score, % at 18.7 µM. actives 0.13% (n = 350,000);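 active = replicate mean at a twofold rise or more, about +100% in these data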;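 also: firefly luciferase made from a UUG start codon reports start codon fidelity; reporter light over untreated wells divided by growth signal over untreated wells; some hits fall short of that in this replicate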
HIV Env fusion – inhibitors of HIV-1 Env-driven cell-cell fusion, primary screen, HeLa-JRFL effector, CEM21 target cells, luciferase; inhibition, % at 12.3 µM; actives 1.1% (n = 360,000); AID 651610, 2012;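 active = mean replicate inhibition score of at least 50 and every replicate individually at or above 50; inconclusive = only one of the two criteria met; inactive = mean below 50 and not all replicates reaching 50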;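 also: 0% = plate neutral controls and 100% = maraviroc near 300 nM; one replicate is shown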
MT1-MMP act inh – blockers of MT1-MMP proenzyme processing, primary screen, HT1080 RFP-PRO-GFP cells, GFP/RFP fluorescence. GFP/RFP ratio fluorescence, overnight; percent of plate control window, DMSO zero. Matrix metalloproteinase-14 (Homo sapiens), P50281. GFP/RFP ratio change, % at 20 µM. actives 0.061% (n = 360,000);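 active = GFP/RFP ratio change of at least 30% with cell ATP level not reduced by more than half and red fluorescence within 50% of control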; also: strong numbers were not always called active
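Assay system: RFP-PRO-GFP reporter HT1080 cells; read-out basis: GFP/RFP fluorescence ratio; benchmarks: DMSO wells and RFP-L50D-GFP cells; doses: 20 µM single dose, 1% DMSO; schedule: overnight cell settling, then overnight compound exposure, 37 °C, 5% CO2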
Rce1 inh – yeast Rce1p protease inhibitors, primary screen, biochemical, fluorescence, cell-free homogeneous. CAAX prenyl protease 2 (Saccharomyces cerevisiae (strain ATCC 204508 / S288c)), Q03530. yeast membranes, quenched prenylated peptide cleavage fluorescence. calls only. actives 0.27% (n = 290,000). AID 2563, 2010;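 active = fall in fluorescence gain of 50% or more versus controls, with final raw signal at or below 3038400; inconclusive = same 50% fall but final raw signal above 3038400; inactive = fall in fluorescence gain under 50%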;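 also: plate controls were neutral control wells for no effect and wells lacking membranes for full effect; tested at 10 µM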
eIF4H FP inh retest – second read-out of eIF4H FP inh, no call of its own (marks repeat the call); inhibition, %; compound at 20 µM; confirmation average;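 mean of two retest wells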
PABP polyA inh retest – recorded beside PABP polyA inh, whose call it bears; inhibition, %; compound at 20 µM; confirmation repeats;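 mean of two retest wells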
MT1-MMP act inh RFP – recorded beside MT1-MMP act inh, whose call it bears; RFP signal change, %; measured here: RFP expression control read;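 0 = vehicle wells; hits needed this value within 50% of zero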
The depositor's hits bear a star; i = inactive; ? = inconclusive; . = no result given; & = joins results of further samples. Not all compounds are listed; count on the stated rates, not on these rows.

SMILES | PABP polyA inh | eIF4H FP inh | CSC inhib | Yeast UUG start | HIV Env fusion | MT1-MMP act inh | MT1-MMP act inh RFP | Rce1 inh | others
Cc1ccc2nc(-c3ccncc3)cc(C(=O)N3CCC4(CC3)OCCO4)c2c1 | 21 | 4 | 3 | -16 | . | -2 | 9 | .
Cc1cccc(-n2c(O)c(/C=N/NC(=O)c3ccncc3)c(=O)[nH]c2=O)c1 | 6 | 12 | -8 | -25 | 10 | 0 | 7 | i
CCN(CC)c1ccc(CN2CC=C(c3ccc(F)cc3)CC2)cc1 | 18 | -5 | -5 | -4 | . | -2 | 2 | i
c1cncc(CNCCN2CCNCC2)c1 | . | . | . | -10 | -2 | -4 | -9 | .
Cc1cc(C(=O)C[N+]23CCN(CC2)CC3)c(C)n1-c1ccc(Br)cc1 | 5 | -8 | 20 | . | 3 | 1 | 4 | i
COC(=O)C1=C(c2ccc(OC)c(OC)c2)C[C@@H]2CC[C@H]1N2C(=O)NC(C)C | . | . | -20 | -14 | 3 | 4 | 2 | .
CCC(C)N1C(=O)/C(=C\c2cc3c4c(c2)CCCN4CCC3)C(=O)NC1=S (stereo not drawn) | 13 | 64 | . | -22 | -57 | -9 | 7 | i | eIF4H FP inh retest=7;PABP polyA inh retest=-4
C[C@H](N)CN1CCc2ccc(Br)cc21 | . | . | 1 | 5 | 15 | -5 | 1 | i
Clc1ccccc1NC1=NCCCS1 | -1 | -11 | . | 10 | 15 | 3 | 4 | i
O=C1NC(=S)NC(=O)C1=Cc1c(Cl)cccc1Cl | . | . | . | 3 | 33 | -6 | 2 | .
NCCc1ccc(S(=O)(=O)F)cc1 | . | . | -11 | -14 | 31 | -1 | -1 | .
COC(=O)C1=C(c2ccc(S(C)(=O)=O)cc2)C[C@@H]2CC[C@H]1N2C(=O)N1CCC(O)CC1 | . | . | 5 | -16 | -12 | -3 | 0 | i
CCOC(=O)C1(CCc2ccccc2)CCN(C(C)CSC)CC1 (stereo not drawn) | . | . | 49 | 5 | 1 | 1 | 1 | i
CCCC1(CCC)C(=O)NC(=Nc2ccc(C)cc2)NC1=O | -5 | 2 | -1 | . | 4 | . | . | i
CCN(CC)c1ccc(CC2C(=O)N(C)C(=O)N(C)C2=O)cc1 | -2 | 34 | 2 | . | . | 2 | 12 | i

Retrieved by structure from the list above (3):
SMILES | PABP polyA inh | eIF4H FP inh | CSC inhib | Yeast UUG start | HIV Env fusion | MT1-MMP act inh | MT1-MMP act inh RFP | Rce1 inh | others
Clc1ccccc1NC1=NCCCS1 | -1 | -11 | . | 10 | 15 | 3 | 4 | i
CCN(CC)c1ccc(CC2C(=O)N(C)C(=O)N(C)C2=O)cc1 | -2 | 34 | 2 | . | . | 2 | 12 | i
NCCc1ccc(S(=O)(=O)F)cc1 | . | . | -11 | -14 | 31 | -1 | -1 | .

(next part)
SMILES | PABP polyA inh | eIF4H FP inh | CSC inhib | Yeast UUG start | HIV Env fusion | MT1-MMP act inh | MT1-MMP act inh RFP | Rce1 inh | others
O=C(N/N=C/c1c(O)n(Cc2ccccc2)c(=O)[nH]c1=O)c1ccccc1O | -1 | 4 | 46 | . | 24 | 10 | 6 | i
Fc1c(F)c(F)c(N2CCNCC2)c(F)c1F | -4 | 3 | -17 | -7 | 16 | -1 | 3 | i
Cc1ccccc1-[n+]1c(-c2ccccc2)cc(-c2ccccc2)cc1-c1ccccc1 | . | . | 27 | -6 | 68* | 3 | -32 | i
NNC(=O)c1nc[nH]c1C(=O)Nc1ccc(Cl)cc1C(=O)c1ccccc1 | 3 | 4 | -4 | -16 | -13 | 1 | 0 | i
C[C@@H]1CN([C@@H](C)CO)C(=O)CCCn2nncc2CO[C@H]1CN(C)C(=O)Oc1cccc2ccccc12 | . | . | . | -3&30 | 10 | 0 | 4 | .
Clc1cc(Cl)c(-c2cc(Cl)c(Cl)cc2Cl)cc1Cl | . | . | 27 | -14 | . | -2 | 4 | .
CC(Cc1ccccc1)N1C(=O)c2ccccc2C1=O (stereo not drawn) | 0 | 1 | -6 | -5 | 5 | 4 | 4 | i
CCCCn1c(O)c(/C=N/NC(=O)c2ccncc2)c(=O)[nH]c1=S | 61 | 56 | 3 | -30 | -2 | -2 | 54 | i | eIF4H FP inh retest=4;PABP polyA inh retest=31
CCCCn1c(O)c(C(C)=NC(Cc2c[nH]c3ccccc23)C(=O)OC)c(=O)[nH]c1=O (stereo not drawn) | -11 | 5 | 8 | -2 | -72 | -5 | -2 | i
Cn1ccnc1P(=S)(c1nccn1C)c1nccn1C | 4 | -1 | -6 | -6 | . | 2 | 1 | i
C[C@]12CC[C@H](O)C[C@@H]1CC[C@@H]1[C@@H]2CC[C@]2(C)[C@@H](C(=O)O)C[C@@H]12 | . | . | -16 | 2 | -5 | 1 | 1 | i
CSCCC(c1nnnn1-c1c(C)cccc1C)N1CCC2(CC1)C(=O)NCN2c1ccccc1 (stereo not drawn) | . | . | . | -24 | -72 | -1 | -11 | .
Cc1nc2cc([N+](=O)[O-])ccc2c(=O)n1-c1cccc(Br)c1 | . | . | 2 | . | 10 | 0 | -2 | i
C/C=C1\NC(=O)[C@H](C)NC(=O)[C@@H](NC(=O)[C@H](Cc2ccc(O)cc2)NC(=O)[C@@H](NC(=O)/C(C)=C/C)C(C)C)[C@@H](C)OC(=O)[C@H](CCCc2ccc(O)cc2)NC(=O)[C@@H](CCC(=O)O)NC1=O | . | . | . | 21 | 8 | 0 | 1 | .
CCCCOc1ccc(CN2CCN(CCO)CC2)cc1 | 15 | 0 | 30 | -14 | -23 | 4 | 1 | i
N#CCN1CCN(c2ccc(C(F)(F)F)cc2)CC1 | -5 | -2 | 13 | -7 | -7 | 5 | 6 | i
CCCCn1c(C)c(C(=O)O)c2cc(OC)c3ccccc3c21 | -4 | 0 | 31 | -11 | 20 | -4 | -1 | i
COC(=O)C1=C(c2ccc(-c3ccccc3)c(F)c2)C[C@@H]2CC[C@H]1N2C(=O)NCC1CC1 | . | . | 21 | -7 | 28 | 18 | -27 | .
COC(=O)C1=C(c2ccc(F)cc2OCc2ccccc2)C[C@@H]2CC[C@H]1N2C(=O)NC1CCCCC1 | . | . | 25 | -17 | 17 | -13 | -8 | .
CC(C)(C)c1ccc(O)c(CN2CCN(c3ccccc3)CC2)c1 | -2 | -9 | . | -20 | -4 | -2 | -8 | i
Cc1ccc(-n2c(O)c(C=NCCN(C)C)c(=O)[nH]c2=O)cc1 | -2 | -12 | -15 | . | -5 | -5 | 0 | i
O=C(Nc1ccc(Cl)cc1C(=O)c1ccccc1)c1ccco1 | -13 | -2 | 11 | -4 | -37 | 2 | 2 | i
O=c1[nH]c(=O)n(CCC2=CCCCC2)c(O)c1C=NCCN1CCNCC1 | 54 | 86 | 0 | 6 | 3 | -12 | 9 | i | eIF4H FP inh retest=24;PABP polyA inh retest=46
c1ccc(CN2Cc3ccccc3-n3nncc3C2)nc1 | . | . | . | -22 | 11 | 2 | 6 | .
O=C1NC(c2cccnc2)Nc2sc3c(c21)CCCC3 (stereo not drawn) | -6 | -10 | -9 | -16 | -24 | 1 | 1 | i
O=C(NCCCn1ccnc1)C(Cl)(Cl)Cl | -1 | -10 | -7 | . | 1 | -4 | 3 | .
C[N+](C)(C)c1ccccc1 | -4 | -3 | -14 | -20 | 14 | 0 | 2 | i
S=C(NCCc1ccccc1)NCCc1cnc[nH]1 | -4 | 8 | -10 | -31 | -34 | 1 | 1 | i
C[C@]12CCC3C(CC[C@H]4C[C@@H](O)CC[C@]34C)C1[C@H]1CN=N[C@H]1[C@@H]2O (stereo partly drawn) | . | . | 7 | . | -3 | -3 | -1 | .
COc1ccc(C)cc1NC1=NCCCS1 | ? | 4 | -2 | . | 0 | 7 | 7 | i

Nothing new here: entries from further up.
SMILES | PABP polyA inh | eIF4H FP inh | CSC inhib | Yeast UUG start | HIV Env fusion | MT1-MMP act inh | MT1-MMP act inh RFP | Rce1 inh | others
N#CCN1CCN(c2ccc(C(F)(F)F)cc2)CC1 | -5 | -2 | 13 | -7 | -7 | 5 | 6 | i
CCCCn1c(C)c(C(=O)O)c2cc(OC)c3ccccc3c21 | -4 | 0 | 31 | -11 | 20 | -4 | -1 | i
COC(=O)C1=C(c2ccc(-c3ccccc3)c(F)c2)C[C@@H]2CC[C@H]1N2C(=O)NCC1CC1 | . | . | 21 | -7 | 28 | 18 | -27 | .

(listing goes on)
SMILES | PABP polyA inh | eIF4H FP inh | CSC inhib | Yeast UUG start | HIV Env fusion | MT1-MMP act inh | MT1-MMP act inh RFP | Rce1 inh | others
CN1C(=O)N(C)C(=O)C2(Cc3cc(NC(=O)c4ccc(F)cc4)ccc3N3CCCC32)C1=O (stereo not drawn) | 23 | 11 | 8 | -6 | 12 | -1 | 7 | i
Cn1c(=O)cc(OCC(=O)N2CCN(C3CCCCC3)CC2)c2ccccc21 | -12 | 10 | . | -18 | -12 | 0 | 5 | i
CN1CCCC(C(=O)c2ccc(-c3ccccc3)cc2)C1 (stereo not drawn) | 4 | 6 | 65 | -17 | 12 | 2 | 1 | i
COC(=O)CSC1=NP(=S)(SCC(=O)OC)N2CCCC2=C1C#N (stereo not drawn) | 4 | 1 | -13 | -12 | . | -3 | -4 | .
COC(=O)C1=C(c2cccc(C#N)c2)C[C@@H]2CC[C@H]1N2C(=O)NCCOc1ccccc1 | . | . | -12 | -4 | 10 | -1 | -1 | .
CCc1ccc(OCC(=O)N2CCN(Cc3ccc4c(c3)OCO4)CC2)cc1 | 2 | 1 | 16 | -6 | 14 | 0 | 0 | i
COC(=O)C1(C(=O)O)Cc2cc([N+](=O)[O-])ccc2N2CCCC21 (stereo not drawn) | 2 | -15 | -7 | . | -13 | 2 | 2 | i
CN(C)C(CNC(=O)Cc1c(Cl)cccc1Cl)c1ccccc1 (stereo not drawn) | 14 | -6 | -5 | . | 5 | -4 | -4 | i
CC(=NCC1CCCO1)c1c(O)n(C)c(=O)n(C)c1=O (stereo not drawn) | 3 | -8 | -3 | -8 | -32 | 1 | -1 | i
O=[N+]([O-])c1ccc(NC2CCCC2)c2ccncc12 | 24 | 17 | -4 | . | . | 2 | -6 | i
N#Cc1ccc(/C=C/C(=O)O)cc1 | 2 | -1 | -10 | . | -4 | 0 | 4 | i
Cc1nn(Cc2ccccc2)c(C)c1C(=O)NC1CCCc2ccccc21 (stereo not drawn) | -7 | -9 | 5 | -16 | . | 8 | 2 | i
CN(C)C(=O)Oc1c(Cl)cc(Cl)c2cccnc12 | -5 | -15 | -5 | -21 | 8 | 1 | 2 | i
CCCC(C)C1(CC)C(=O)NC(=Nc2ccccc2OC)NC1=O (stereo not drawn) | 4 | 1 | . | -28 | -47 | 2 | 0 | i
O=C(C1CCC(=O)N1Cc1ccc(F)cc1)N1CCC2(CC1)OCCO2 (stereo not drawn) | -10 | -13 | -13 | -5 | . | 6 | 0 | i
